# Screening data as filed in PubChem BioAssay.
# CapD inh: Bacillus anthracis CapD inhibitors, primary screen, biochemical, fluorescence intensity | AID 492967, 2010 | purified CapD enzyme, fluorescence intensity read-out; active compounds read low; some hits fall short of the stated cut | 140,000 tested, 0.23% active | z-score (concentration not given with the values) | CapD gamma-glutamyltranspeptidase (Bacillus anthracis Ames Ancestor);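 active means z-score under -4 in either of two replicates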;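 further: stock transfer was 100 nL into about 40 µL; score is relative to mean and spread of the plate; one replicate is shown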
# AID504770: growth inhibition of E. coli YBA685, primary screen, V. cholerae RctB inhibitors; z-score (concentration not given with the values); E. coli YBA685 rctB-dependent plasmid, OD600 growth, 3 h; active compounds read low; 130,000 tested, 0.27% active;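 active means z-score under -2 on both plates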;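 further: wells of about 30 µL received 100 nL stock; score is relative to mean and SD of the test wells; the first replicate is given; strong numbers were not always called active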
# Starred values were filed as active, the others as inactive; . = not tested or not shown; & = joins results of further samples.
SMILES,CapD inh,AID504770
COC(=O)CSc1nnc(-c2ccncc2)n1Cc1ccccc1,0.11,.
CC(C)NC(=O)C1CCN(c2nc3cc(Cl)ccc3s2)CC1,0.9,0.6
O=c1c2ccccc2[nH]c(=S)n1CC1COc2ccccc2O1 (stereo not drawn),0.41,0.6
Cc1ccc2nc(NC(=O)c3nc(-c4ccccc4)oc3C)sc2c1,.,0.2
CC(C)(C)n1ncc2c(=O)n(CC(=O)c3ccccc3)cnc21,1.4,-1.1
NC(=O)C1CC(=O)N(CCc2ccc(F)cc2)C1 (stereo not drawn),.,0.55
O=C(C1CC1)N1CCc2cc(S(=O)(=O)Nc3ccc(Cl)cc3)ccc21,-0.16,-0.45
Cc1ccc2c(c1)CCCN2C(=S)Nc1cccc(Cl)c1,-0.28,.
CSc1nc(-c2ccc(Cl)cc2)nc(SC)c1Cl,-1.2,3.5
COc1cccc(C2C(C#N)=C(N)Oc3c2c(C)nn3-c2ccccc2)c1 (stereo not drawn),-0.045,-0.65

# Exported with values under each structure: entries from further up.
# The line under a structure holds: CapD inh	AID504770
- Cc1ccc2nc(NC(=O)c3nc(-c4ccccc4)oc3C)sc2c1
→ .	0.2
- CC(C)(C)n1ncc2c(=O)n(CC(=O)c3ccccc3)cnc21
→ 1.4	-1.1
- NC(=O)C1CC(=O)N(CCc2ccc(F)cc2)C1 (stereo not drawn)
→ .	0.55
- O=C(C1CC1)N1CCc2cc(S(=O)(=O)Nc3ccc(Cl)cc3)ccc21
→ -0.16	-0.45
- Cc1ccc2c(c1)CCCN2C(=S)Nc1cccc(Cl)c1
→ -0.28	.
- CSc1nc(-c2ccc(Cl)cc2)nc(SC)c1Cl
→ -1.2	3.5

# Following part:
SMILES,CapD inh,AID504770
CC1CC(C)CN(C(=O)CSc2nc3ccccc3c3nc4ccccc4n23)C1 (stereo not drawn),-0.88,-0.95
O=C(/C=C1/NCCS1)c1ccc(Cl)cc1,0.21,0.45
O=C(O)c1cn(CCOc2ccccc2)c2ccccc12,0.66,-1.2
COc1cccc2c1OC1(C)CC2/C(=C(\C)O)C(=O)N1 (stereo not drawn),0.14,.
CCSc1nc2sc3c(c2c(=O)n1Cc1ccccc1)CC(C)(C)OC3,0.33,.
CCOc1ccc(N(CCc2noc(C)n2)S(=O)(=O)c2ccc(Cl)cc2)cc1,-0.35,.
O=C(Nc1cccc(Cl)c1)c1cc(=O)c2ccccc2o1,0.43,1.4
CCN(CC)S(=O)(=O)c1cc(C(=O)NC)ccc1Cl,0.26,-0.4
COc1nc(C)nc(NC(=O)NS(=O)(=O)c2ccccc2Cl)n1,-0.27,.
COc1ccc(-c2c(C)n[nH]c2C)c(C(=O)O)c1,-0.16,.
O=C(O)c1cccc2c1C(=O)N(Cc1cccnc1)C2,0.14,-0.1
CC(C)C(=O)NC1C2CC3CC(C2)CC1C3 (stereo not drawn),-0.11,-0.55
CCCCC(=O)NC(c1ccc2c(c1)OCO2)c1cc(Cl)c2cccnc2c1O (stereo not drawn),-1.2,.
Cc1cc(C)c(S(=O)(=O)N(CCC(C)C)S(=O)(=O)c2ccccc2C#N)c(C)c1,.,-4.1*
CCN(CC)c1ccc2cc(C(=O)NC(C)=O)c(=Nc3ccc(F)c(Cl)c3)oc2c1,-0.57,.
NS(=O)(=O)c1ccc(CNC(=O)CSc2ncccn2)cc1,.,-0.7
CCS(=O)(=O)NCc1csc(C)n1,.,0.3
Cc1onc(-c2ccccc2)c1CNC(=O)c1ccccc1,0.14,-0.5
O=c1c2ccccc2nc(CNCC2CCCO2)n1-c1ccc(F)cc1 (stereo not drawn),-0.035,-0.95
CC1CCCN(C(=O)c2ccc(NC(=O)c3ccc(=O)[nH]c3)cc2)C1 (stereo not drawn),-0.36,-1.1
N#CCN1C(=O)c2ccccc2C1=O,-0.43,1.8
CCN(C(=O)COc1ncnc2ccccc12)C1CCCCC1,-0.88,1.7
O=C(NCc1ccncc1)c1ccc(N2CCCCS2(=O)=O)cc1,.,0.95
Cc1nc2c(oc3nc(-c4ccco4)c4c(c32)CC(C)(C)OC4)c(-c2ccccc2)c1C(=O)O,-0.74,-0.15
N=C1C(c2nc3ccccc3[nH]2)=C(O)CN1CCN1CCOCC1,.,-0.2
O=C(OCC(=O)N1CCCCC1)c1ccc(I)cc1,.,-0.1
Cc1ccc(C(=O)CSc2cnc3ccccc3n2)cc1C,-0.08,-0.6
CN1CCCCc2c1nc1ccccc1c2N,.,0.25
O=C1NC(=O)c2cc(-c3ccccc3)ccc21,42,-0.5
O=C(NCc1ccncc1)Nc1ccccc1,.,0.25

# Profiles as entered above. Order of screens: CapD inh | AID504770
# Cc1ccc(C(=O)CSc2cnc3ccccc3n2)cc1C is listed with -0.08 | -0.6
# CCN(C(=O)COc1ncnc2ccccc12)C1CCCCC1 is listed with -0.88 | 1.7

# (listing goes on)
SMILES,CapD inh,AID504770
O=C1CCCN1c1ccc(S(=O)(=O)NCCOc2ccccc2Cl)cc1,.,0.05
Cc1cc2nc(C(F)(F)F)cc(=O)n2[nH]1,-0.06,1.9
CCn1c(O)c(C=Nc2ccc3[nH]ncc3c2)c(=O)n(CC)c1=S,.,0.45
COc1ccc(C2Nc3ccccc3NC3=C2C(=O)CC(C)(C)C3)cc1COc1ccc(F)cc1 (stereo not drawn),-0.92,.
Cc1ccsc1CCNS(=O)(=O)c1ccc(CN2C(=O)c3cccnc3C2=O)s1,-0.07,0.55
CCOC(=O)c1sc(N(Cc2ccccc2)C(=O)CSc2nnc3n2CCCCC3)nc1C,.,0.05
O=S(=O)(c1cccc(Cl)c1Cl)N1CCN(Cc2ccsc2)CC1,-0.35,.
Cc1cc(NC(=O)c2ccc(Cl)cc2)n(-c2nc3ccccc3s2)n1,-0.65,-0.15
Cc1sc2nc(SCCC(C)C)nc(N)c2c1C,-0.15,0
O=C1OC(C(=O)NCc2ccccc2)Cc2ccccc21 (stereo not drawn),.,-0.1
O=c1c(COCc2ccc(Cl)cc2)cc2cccc3c2n1CCC3,5.7,.
CN1C(=O)C(=Cc2cn(CC(=O)NCc3ccco3)c3ccccc23)C(=O)N(C)C1=O,-0.57,2
CCc1ccc(NC(=O)c2cnc(N3CCN(c4ccccn4)CC3)c3ccccc23)cc1,2.6,-0.15
CCOC(=O)C1C(=O)NC(SCc2ccc(Cl)cc2)=C(C#N)C1c1ccccc1F (stereo not drawn),-0.11,.
CN=C1SC(CC(=O)Nc2ccc(F)cc2F)C(=O)N1/N=C(\C)c1cccc(-n2cnnn2)c1 (stereo not drawn),.,-0.15
N#CC(Cc1ccccc1)Sc1nnc2sc3ccccc3n12 (stereo not drawn),.,-0.7
O=C1NC(=O)N(Cc2ccccc2)C(=O)/C1=C/c1ccc(O)cc1,-0.89,-0.5
Cn1c(=O)[nH]c(=O)c2c1[nH]c(=S)n2Cc1cccc(Br)c1,0.015,.
C=CCn1c(C(C)NC(=O)C(C)(C)C)nc2ccccc21 (stereo not drawn),-0.035,-0.5
COc1cc(CC(=O)N2CCN(C(=O)C3CCCO3)CC2)cc(OC)c1OC (stereo not drawn),.,-0.4
CCOC(=O)C1CCN(C(=O)CSc2nnc(-c3ccc(C)cc3)n2N)CC1,.,0.05
CCCCCCCCOc1ccc(C2C(N3C(=O)c4ccccc4C3=O)C(=O)N2c2ccc(C)cc2)cc1 (stereo not drawn),-0.045,.
O=C(Nc1ccc(Cl)cc1)c1ccc(CSc2ncccn2)cc1,0.65,1
Cc1ccc(NC(=O)CSCc2n[nH]c(=O)[nH]2)c(Br)c1,0.095,-0.6
CC1(C)Cc2cccc(OC(=O)c3cncc(Br)c3)c2O1,0.43,-0.15
CCn1c(-c2cccc(Br)c2)nc2ccccc21,2.2,-0.6
CSc1nnc(OC(=O)N(C)C)n1-c1ccc(Cl)cc1,1,-0.65
COc1cc(C(=O)NCCOc2ccc(C)c(C)c2)cc(OC)c1OC,.,-1.1
CCOc1ccc2nc(Cl)c(CN(Cc3ccco3)C(C)=O)cc2c1,.,-0.05
CCOC(=O)c1ccc(N2C=C(C(=O)OC)C(c3cc(Br)c(O)c(OC)c3)C(C(=O)OC)=C2)cc1,4.2,.
COC(=O)CC1C(=O)NCCN1C(=O)OC(C)(C)C (stereo not drawn),0.38,-0.9
O=C(C1CC1)N1CCN=C1SCc1ccccc1,-1.6,0.1
COc1cc(OC)cc(C(=O)N2c3ccccc3N3C(c4c(C)c(C)c(Cl)c(C)c4C)=NON23)c1,-0.98,.
N#C/C(=C/c1ccccc1)C(=O)NCc1ccccc1,.,0.8
CCOc1ccc(-c2c(C)[nH]n3c(=O)c(N4CCc5ccccc5C4)c(C)nc23)cc1OCC,4.3,-1.9
CCOc1ccc(N2CC(c3nc4ccccc4n3Cc3ccc(F)cc3)CC2=O)cc1 (stereo not drawn),-0.3,-0.3
COc1ccc(-n2c(=O)c3c4c(sc3n3cnnc23)COC(C(C)C)C4)cc1 (stereo not drawn),1.1,1.5
CCN(CC)C(=O)Oc1ccc(Br)cc1C(=O)Nc1ccc(F)cc1F,-0.82,0.4
O=c1c(-c2ccccc2)[n+]([O-])c2ccccc2n1O,-3,.
Cc1cc(=O)n2[nH]cnc2n1,-0.095&0.56,-0.7

# In a second layout: entries from further up.
structure	CapD inh	AID504770
N#C/C(=C/c1ccccc1)C(=O)NCc1ccccc1	.	0.8
O=c1c(-c2ccccc2)[n+]([O-])c2ccccc2n1O	-3	.
COc1ccc(-n2c(=O)c3c4c(sc3n3cnnc23)COC(C(C)C)C4)cc1 (stereo not drawn)	1.1	1.5
CCOc1ccc(N2CC(c3nc4ccccc4n3Cc3ccc(F)cc3)CC2=O)cc1 (stereo not drawn)	-0.3	-0.3
COC(=O)CC1C(=O)NCCN1C(=O)OC(C)(C)C (stereo not drawn)	0.38	-0.9
Cc1cc(=O)n2[nH]cnc2n1	-0.095&0.56	-0.7

# The list goes on.
SMILES,CapD inh,AID504770
NC(=O)c1sc2nc3c(cc2c1N)CCCC3,-0.045,-0.05
CCOC(=O)N1CCC(NC(=O)Cn2ncc3ccccc32)CC1,-0.95,1.1
Cc1cccc(OCc2nnc(SCc3nc4ccccc4nc3C)o2)c1,.,-0.05
CSc1nc2ccccc2cc1/C=C(\C#N)c1ccc(Cl)cc1Cl,-0.76,.
CCc1ccccc1N1CCN(S(=O)(=O)c2ccc(Cl)c(Cl)c2)CC1,-0.96,.
C=CCn1c(=O)[nH]c2nc3cc(NC(=O)CC)ccc3nc2c1=O,-0.63,1.4
CC(C)CC(C(=O)NC1CCCCC1C)N1C(=O)c2ccccc2C1=O (stereo not drawn),.,-0.4
CCc1cc(=O)oc2c(OC(C)=O)c(OC(C)=O)ccc12,5.6,-0.05
CN(CC(O)Cn1c2ccccc2c2ccccc21)S(=O)(=O)c1ccc(Cl)cc1 (stereo not drawn),0.37,1.6
CC(C)(C)C(=O)Oc1ccc(Br)cc1,-0.2,2.7
CC(NC1CCOC(C)(C)C1)c1ccccc1 (stereo not drawn),0.14,-0.4
O=S(=O)(c1ccccc1)N1CCC(O)(c2ccccc2)C2CCCCC21 (stereo not drawn),.,-0.35
O=C(CSC1CCCC1)c1ccccc1Br,0.22,-0.35
COC(=O)CSc1nnc(CNC(=O)Cc2ccccc2)n1C,0.32,-0.7
CCOC(=O)c1ccc(NC(=O)/C=C/c2cccc(C(F)(F)F)c2)s1,-1.1,0.1
CS/C(NCC1CC1)=C(/C#N)C(=O)c1ccc(Cl)cc1,-0.83,1.5
CC(=O)c1cccc(N2C(=O)C3C4c5ccccc5C(C(C)=O)(c5ccccc54)C3C2=O)c1 (stereo not drawn),49,.
O=c1cc(CNC(c2ccccc2)c2ccccc2)nc2sccn12,.,0.4
O=C1/C(=C\c2cc(Br)ccc2O)SC(=S)N1C1CCCCC1,-0.64,.
CCOC(=S)Nc1cccc2ccccc12,0.28,-0.55
Cc1[nH]c2cc(C(=O)O)ccc2c1CC(=O)O,75,-0.4
COc1ccc2cc(CN(Cc3cccnc3)Cc3nnnn3Cc3ccc(F)cc3)c(=O)[nH]c2c1,.,0
CCC(C)c1ccccc1NC(=O)N(C)C (stereo not drawn),-0.91,1.1
CN(C)c1ccc(NC(=O)C23CC4CC(C2)CC(n2cnc(Cl)n2)(C4)C3)cc1,0.16,-0.5
Fc1ccccc1Nc1nc(NCc2ccco2)c2ccccc2n1,46,.
O=C(O)CCCC(=O)N1CCc2cc(S(=O)(=O)N3CCc4ccccc43)ccc21,-0.12,-1.5
O=C(CC1SC(=Nc2ccccc2)N(c2ccccc2)C1=O)Nc1ccc(F)cc1 (stereo not drawn),-0.25,.
CCCNc1c2c(nc3ccccc13)CC(C)(C)CC2=O,.,-0.3
O=C(CSc1nc2ccccc2c(=O)n1CCO)N(C1CCCCC1)C1CCCCC1,.,0.35
O=C1CCc2ccccc2N1Cc1ccccc1,0.33,.
CC(C)OC(=O)c1ccc(CN2C(=O)NC(CCc3ccccc3)C2=O)o1 (stereo not drawn),.,0.35
CCOC(=O)COc1ccc(C2NC(C(=O)O)CS2)cc1OCC (stereo not drawn),-0.56,-0.4
COC(=O)C(CC(=O)c1cccs1)c1ccccc1 (stereo not drawn),0.065,0.15
O=c1cc(-c2ccccc2)[nH]c(=O)[nH]1,-0.005,-0.75
CCOC(=O)COc1c(C#N)sc2c1c(=O)n(-c1ccccc1)c(=S)n2-c1ccccc1,-1.1,0.55
CCCCn1c(CNC(=O)c2ccco2)nnc1SC(C)C(=O)Nc1sc2c(c1C(=O)OCC)CCCCC2 (stereo not drawn),-0.48,.
OCc1nc2ccccc2n1CN1CCN(Cc2cccs2)CC1,.,-0.3
CCOC(=O)C1=CS/C(=C2/C(=S)C(C)(C)Nc3c(OCC)cccc32)S1,-1.5,.
COc1ccc(N2CCN(C(=O)CSc3nnc4c(C)cc5cc6c(cc5n34)OCCO6)CC2)cc1,.,-0.75
CCc1ccc(-c2cc3c(=O)n(CC(=O)NCCN4CCOCC4)nc(C)n3n2)cc1,0.33,0.25
